D2 ag = activates the human D2 dopamine receptor. P14416. activation, % (test concentration not listed). 360,000 tested, 0.084% active. DiscoveRx PathHunter D2 beta-arrestin, luminescence, 90 min; 100% = 57 uM dopamine signal; in the data active = activation above about 40%; inconclusive = about 15% to 40%; inactive = below about 15%; note: compound concentration not given in the record; the text of the record calls up to 30% inactive
Target sequence (P14416 whole entry, looked up): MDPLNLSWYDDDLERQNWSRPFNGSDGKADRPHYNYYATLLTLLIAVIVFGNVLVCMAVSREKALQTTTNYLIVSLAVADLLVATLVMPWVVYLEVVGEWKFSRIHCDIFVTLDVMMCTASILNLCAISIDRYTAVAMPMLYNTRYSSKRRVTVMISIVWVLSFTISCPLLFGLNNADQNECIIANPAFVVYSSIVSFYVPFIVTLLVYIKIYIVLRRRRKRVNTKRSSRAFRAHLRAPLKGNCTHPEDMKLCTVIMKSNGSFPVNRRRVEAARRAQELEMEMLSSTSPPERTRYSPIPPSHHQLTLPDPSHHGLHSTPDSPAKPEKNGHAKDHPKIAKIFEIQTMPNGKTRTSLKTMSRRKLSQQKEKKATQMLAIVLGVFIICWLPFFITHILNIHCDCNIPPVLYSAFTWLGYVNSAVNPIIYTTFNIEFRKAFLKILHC
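DiscoveRx PathHunter D2 beta-arrestin cells (2,100/well) attached overnight, then compound-stimulated 90 min at 37 C in HBSS/10 mM HEPES/0.1% Tween-20 buffer; beta-galactosidase complementation read by luminescence after 1 h at ambient temperature. Dopamine 57 uM final (EC100) as control.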
D2 potentiator = potentiates the human D2 dopamine receptor allosterically | 360,000 tested, 0.23% active | potentiation, % (concentration not given with the values) | DiscoveRx D2 beta-arrestin cells, luminescence, 90 min; 100% = 57 uM dopamine signal | P14416; active = potentiation of 50% or more; inconclusive = 30% to 50%; inactive = 30% or less;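 note: compound concentration not given in the record; tested on top of an EC20 dose of dopamine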
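D2 cells co-treated with compound plus 50 nM dopamine (EC20) for 90 min at 37 deg C to detect potentiation. Beta-arrestin recruitment was read as enzyme-fragment luminescence after 1 h at ambient temperature. Full response was set by 57 uM dopamine.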
TRPML1 ag = agonists of human TRPML1 channel; activation, % (test concentration not listed); Q9GZU1; AID 624414; TRPML1-expressing cells, Ca2+ dye fluorescence, FDSS; host cell line not named in the record; reference of the full effect not given here; 410,000 tested, 0.12% active; in the data active = activation above about 50%; inconclusive = about 30% to 50%; inactive = below about 30%; note: 0% is about no effect; the text of the record puts the active cut at 80%
Target sequence (Q9GZU1 whole entry, looked up): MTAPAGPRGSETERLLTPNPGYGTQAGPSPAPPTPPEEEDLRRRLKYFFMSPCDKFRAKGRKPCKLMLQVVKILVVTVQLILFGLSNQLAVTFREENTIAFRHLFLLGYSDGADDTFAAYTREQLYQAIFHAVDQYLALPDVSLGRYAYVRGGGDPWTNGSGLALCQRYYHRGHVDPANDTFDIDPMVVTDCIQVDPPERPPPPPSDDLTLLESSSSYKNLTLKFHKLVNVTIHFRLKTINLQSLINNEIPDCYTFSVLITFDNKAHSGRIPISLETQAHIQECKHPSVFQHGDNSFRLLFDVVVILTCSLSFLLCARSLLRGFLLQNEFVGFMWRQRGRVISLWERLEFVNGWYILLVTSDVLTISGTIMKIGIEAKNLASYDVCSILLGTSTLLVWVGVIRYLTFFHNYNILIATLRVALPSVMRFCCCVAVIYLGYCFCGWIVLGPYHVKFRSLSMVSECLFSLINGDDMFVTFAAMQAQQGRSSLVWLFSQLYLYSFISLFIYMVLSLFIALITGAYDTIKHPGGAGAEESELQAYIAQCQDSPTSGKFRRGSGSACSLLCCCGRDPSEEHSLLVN
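Tetracycline-induced TRPML1-DL cells are seeded and incubated overnight before loading with a no-wash Ca2+ dye and quencher. Agonist activity is taken from the 110 s fluorescence read following compound pin-transfer on an FDSS, before EC80 54-4 challenge.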
TRPML1 blocker = human mucolipin-1 channel inhibition; Q9GZU1; TRPML1-inducible cells, Ca2+ dye fluorescence, FDSS; active compounds read low; inhibition of EC80 agonist-evoked calcium signal; activity change, negative = inhibition, % (concentration not given with the values); 390,000 tested, 0.02% active; AID 624415; in the data active means activity change below about -50%; inconclusive means about -30% to -50%; inactive means above about -30%;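 note: stimulus is agonist 54-4 at its EC80 concentration; % is set by controls: 0 for no effect and ±100 for the full control effect; the text of the record puts the active cut at -80%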
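TRPML1-DL cells, Tet-induced overnight (~16 h, 37 °C) at 1,500 cells/well, were loaded with Ca8 no-wash dye plus quencher for 45-90 min at room temperature. Compounds were pinned during FDSS kinetic reading; agonist 54-4 at EC80 (4 uM final) then added.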
PINK1 modulator = modulators of PINK1 expression; PINK1 immunofluorescence, high-content cytometry, 24 h; Potency, µM (series often up to 76.6 µM), for the others: top-dose activation (PINK1 increase), usual class: activators; 410,000 tested, 0.2% active; AID 624263; active = well fitted activation curve with a large enough effect; inconclusive = small, poorly fitted or top-dose-only effect; inactive = flat fitted curve, though single readings scatter; cell line not stated here;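 note: potency is the fitted concentration of half-maximal effect; % of control where 0% means no effect; nearly all actives have a fitted effect of over 65% in size; a mitochondrial uncoupler was the plate control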
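Stable cell line, 250 cells/well, 12 h attachment; compounds pinned at 5 concentrations, 24 h; CCCP control. Fixed with nuclear dye, primary antibodies 12 h at 10 degrees C, secondary plus cell stain; laser-scanning cytometer read.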
Six1-Eya2 inh = inhibitors of human Six1/Eya2 interaction | Q15475+O00167 | AlphaScreen GST-Six1/His-Eya2 binding, biochemical; active compounds read low; control for the full effect not named in the record | activity change, % (no concentration beside the values) | 360,000 tested, 0.56% active; in the data active = activity change below about -65%; inconclusive = about -30% to -65%; inactive = above about -30%; note: % is set by controls: 0 for no effect and ±100 for the full control effect
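Six1/Eya2 binding was read as AlphaScreen signal after compounds were pinned into GST-Six1 plus His-tagged Eya2 (5X stock 250/500 nM) in pH 8.0 Tris/NaCl/TCEP buffer, beads added, then incubated 1 h, 37 C, dark.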
An asterisk follows results filed as active; ? = inconclusive; / = not tested or not shown; [ ] = remark or other dose. Random draw from the library. Share with any hit: about 1%.

SMILES	D2 ag	D2 potentiator	TRPML1 ag	TRPML1 blocker	PINK1 modulator	Six1-Eya2 inh
COC(=O)c1ccccc1NC(=O)CSc1nnc(C(C)NC(=O)c2ccc(Cl)cc2Cl)n1C (configuration not stated)	-2.6	-10	0.6	-16	3.0%[38.3 µM]	0
O=S(=O)(Nc1ccc(N2CCOCC2)cc1)c1ccccc1	-2.0	22	-0.3	-2	0.1%	-2
O=C(Cn1cnc2ccccc21)c1ccccc1	1.7	-3	-0.6	10	0.8%	1
CCN1C(=O)CC(N2CCN(c3ccc(OC)cc3)CC2)C1=O (configuration not stated)	-3.5	-4	-1.1	4	-3.0%	5
COC(=O)c1ccc(NC(=O)CSc2nc3cccnc3n2C)cc1	-0.6	1	-0.7	2	-1.8%	-3
CCOc1ccc2[nH]c(=O)c(CN(CCCO)S(=O)(=O)c3ccc(F)cc3)cc2c1	7.3	4	-0.6	12	-1.2%	-7
CCCC(=O)N1CCC(CCC(=O)NC2CC2)CC1	0.7	-6	1.0	-22	-1.0%	13
Cc1ccc(-c2nn[nH]n2)o1	-1.8	-9	-0.8	-5	30%[38.3 µM]	1
Nc1ccc(C=Cc2ccc(N)cc2)cc1	6.9	17	-1.3	/	0.4%	2
C=CCNc1nc2ccccc2nc1NS(=O)(=O)c1cccc(C)c1	-1.0	-9	1.6	-23	1.7%	-6
O=C(NNC(=O)c1ccccc1Br)c1ccc(Cl)c(Cl)c1	0.7	-8	-1.0	9	-0.1%	5
CCN(CC)CCNC(=O)c1ccc(-c2nc(CS(=O)(=O)c3ccc(C)cc3)c(C)o2)cc1	/	/	-0.5	7	1.5%	/
Cc1cc(C)cc(NC(=O)C2CCCN(c3nc(C)cc(C)n3)C2)c1 (configuration not stated)	-1.4	-5	0.0	-9	21%[38.3 µM]	2
COc1cc(NC2=CC(=O)CC(C)(C)C2)cc(OC)c1	-0.4	-13	0.1	9	0.6%[38.3 µM]	5
NNC(=O)c1nc2ccccc2s1	-3.5	-39	-0.4	21	2.4%	-12
CCc1c(O)nc(SCC(=O)N2CCc3cc(OC)c(OC)cc3[C@@H]2C)[nH]c1=O	-0.9	-21	/	/	2.1%	-4
O=C(Nc1ccc(N2CCN(C(=O)c3ccco3)CC2)cc1)c1cccs1	-0.9	-6	4.7	19	-1.6%	-9
COc1cc(/C=C/C(=O)Nc2ccc(N3CCCCC3)c(S(=O)(=O)Nc3ccccc3Cl)c2)cc(OC)c1OC	-2.0	-20	0.0	-15	2.8%	-2
CC1(C(=O)NS(=O)(=O)c2ccc(Cl)cc2)CCN1C(=O)C/C=C/c1ccccc1 (configuration not stated)	9.1	6	0.0	/	-0.1%	21
COc1ccc(OC)c(C(=O)NC(CC(N)=O)c2ccc(N3CCN(c4ccccn4)CC3)c([N+](=O)[O-])c2)c1 (configuration not stated)	1.9	-9	-0.8	15	2.6%	2

Random excerpt: 4 compounds from above.
SMILES	D2 ag	D2 potentiator	TRPML1 ag	TRPML1 blocker	PINK1 modulator	Six1-Eya2 inh
CCc1c(O)nc(SCC(=O)N2CCc3cc(OC)c(OC)cc3[C@@H]2C)[nH]c1=O	-0.9	-21	/	/	2.1%	-4
COC(=O)c1ccccc1NC(=O)CSc1nnc(C(C)NC(=O)c2ccc(Cl)cc2Cl)n1C (configuration not stated)	-2.6	-10	0.6	-16	3.0%[38.3 µM]	0
Cc1ccc(-c2nn[nH]n2)o1	-1.8	-9	-0.8	-5	30%[38.3 µM]	1
COc1ccc(OC)c(C(=O)NC(CC(N)=O)c2ccc(N3CCN(c4ccccn4)CC3)c([N+](=O)[O-])c2)c1 (configuration not stated)	1.9	-9	-0.8	15	2.6%	2

More records.
SMILES	D2 ag	D2 potentiator	TRPML1 ag	TRPML1 blocker	PINK1 modulator	Six1-Eya2 inh
CCn1c2ccc(C)cc2c2nc3cc(C(=O)O)ccc3nc21	-1.4	2	3.4	21	9.9%	-69*
Cc1ccc(C(=O)CSc2nnc(COc3cc(C)cc(C)c3)o2)cc1	4.3	-8	4.3	13	6.2%	17
CN=C(Nc1cc(C)nn1CCC#N)c1ccc(F)cc1	-0.4	2	0.1	-2	4.5%[38.3 µM]	3
COc1ccc(C(=O)Nc2ccccc2C(=O)NCCN2CCOCC2)cc1	2.8	-9	0.6	-9	1.1%[38.3 µM]	5
Cc1ccc2cccc(NC(=O)C(F)(F)F)c2n1	-8.3	-29	-0.5	-2	-1.3%	1
O=C(COC(=O)c1ccc(O)cc1)NCCCc1ccccc1	1.2	3	0.8	-2	-0.8%	20
Cc1ccc(Nc2nc(N)nc(COC(=O)C3=COCCO3)n2)cc1	-2.7	-4	1.0	-7	-1.1%	-1
O=C(Nc1ccccn1)c1ccc(Cl)c(S(=O)(=O)N2CCc3ccccc32)c1	-1.4	0	0.3	83	0.8%	0
Nc1ccc(C(=O)O)cc1[N+](=O)[O-]	-4.7	-6	-0.4	8	2.2%	1
O=C(c1ccco1)N1CCN(C(=O)c2cccn3c(=O)c4c5c(sc4nc23)CCCC5)CC1	-3.3	-7	-0.6	1	2.9%	0
COc1cc(CCCN2CCNC[C@H]2Cc2ccc(O)cc2)cc(OC)c1OC	-1.5	2	-0.2	2	2.2%	0
O=C(Nc1ccccc1)N1CCC(=S)Nc2ccccc21	-6.7	-7	-0.3	6	0.0%	4
CC(Cc1ccccc1)C(=O)NCc1nc2ccccc2s1 (configuration not stated)	-2.1	-12	0.3	-2	-0.2%	10
O=C(NCc1ccccc1)C1=C[C@@H](c2ccc3c(c2)OCO3)C[C@@H](OCCCCO)O1	0.1	-11	-0.1	-4	0.5%	-6
Cc1nc(-c2ccc(Cl)cc2)sc1C1(C)CC(c2ccc(C#N)cc2)=NO1 (configuration not stated)	1.2	-9	-0.6	-6	4.5%	-7
COc1ccc(CNC(=O)CCC2N=C3c4ccccc4N=C(SCC(=O)NCCc4ccc(OC)c(OC)c4)N3C2=O)cc1 (configuration not stated)	/	/	-0.7	-6	-0.2%	/
CCOC(=O)C(C)On1c(-c2cccc(Cl)c2)nc2ccc([N+](=O)[O-])cc21 (configuration not stated)	-2.9	3	1.9	11	-0.4%	-28
Cc1ccc(-c2noc(CN(C(=O)C(c3ccccc3)c3ccccc3)C(C)C)n2)cc1	-1.5	-3	-0.5	-1	-3.1%	2
CCOc1ccc(N/C=C/C(=O)c2ccccc2)cc1	3.1	-2	0.6	16	6.3%	-1
Fc1cnc(N2CCOCC2)nc1NCc1ccccc1	-2.7	-16	0.3	-12	5.5%[38.3 µM]	4

As entered above.
Value of `O=C(NCc1ccccc1)C1=C[C@@H](c2ccc3c(c2)OCO3)C[C@@H](OCCCCO)O1` in Six1-Eya2 inh: -6
Value of `O=C(Nc1ccccc1)N1CCC(=S)Nc2ccccc21` in PINK1 modulator: 0.0%
Value of `Cc1ccc(Nc2nc(N)nc(COC(=O)C3=COCCO3)n2)cc1` in TRPML1 blocker: -7
Value of `COc1ccc(C(=O)Nc2ccccc2C(=O)NCCN2CCOCC2)cc1` in TRPML1 blocker: -9
Value of `Cc1nc(-c2ccc(Cl)cc2)sc1C1(C)CC(c2ccc(C#N)cc2)=NO1` (configuration not stated) in PINK1 modulator: 4.5%
Value of `CCOc1ccc(N/C=C/C(=O)c2ccccc2)cc1` in D2 ag: 3.1

(next part)
SMILES	D2 ag	D2 potentiator	TRPML1 ag	TRPML1 blocker	PINK1 modulator	Six1-Eya2 inh
CSc1ncc2c(n1)-c1ccccc1N(Cc1ccc(F)cc1)S2(=O)=O	/	/	1.5	-11	1.1%	/
CC1CC(C)(C)N(C(=O)CN2CCN(C)CC2)c2ccccc21 (configuration not stated)	-3.8	-4	0.8	24	6.3%	2
COc1ccc2nc(NC(=O)C3CCCO3)sc2c1 (configuration not stated)	-2.0	-14	-0.1	-5	3.0%	2
CCOC(=O)C1=CNS(=O)(=O)NC1c1cccc(O)c1 (configuration not stated)	-3.1	-3	0.5	-14	0.0%	3
COc1ccc(N2CCN(S(=O)(=O)CCNC(=O)Cc3ccc(Cl)cc3)CC2)cc1	/	/	1.5	-1	-0.5%	/
O=C(CCNS(=O)(=O)c1ccc2c(c1)CCCC(=O)N2)Nc1cccc(Cl)c1	/	/	1.0	5	-1.2%	/
COC(=O)c1sc(N)c(C(=O)OC)c1COC(=O)CNS(=O)(=O)c1ccc(C)c(C)c1	4.6	-25	2.7	3	5.5%	-13
O=C(c1cc2ncc(Br)cn2n1)N1CCCCC1	-2.3	0	0.0	1	3.1%	18
CCc1cccc(C)c1NC(=O)C(c1ccccc1)N1CCC1=O (configuration not stated)	-4.5	-5	-0.6	-2	2.9%	-7
Cc1ccc(NC(=O)COC(=O)Cc2cccs2)cc1S(=O)(=O)N1CCOCC1	?	-16	-0.1	-7	2.3%	-1
O=S(=O)(CCC1CCCCN1)c1ccccc1 (configuration not stated)	-2.3	-3	0.5	-12	-0.6%	2
O=C(COc1ccc2c(c1)CCC2)NCc1cccc(Cl)c1	-2.5	-6	1.6	5	0.2%	24
COc1ccc(CNC(=O)CCS(=O)(=O)Cc2ccc(C)cc2)c(OC)c1	10	2	-1.0	-2	0.9%	2
COc1cc(/C=N/NC(=O)Cc2ccccc2)cc(OC)c1OC	1.2	-8	/	/	-0.4%	3
O=C(NC(Cc1ccc2c(c1)OCO2)C(=O)NC(Cc1ccccc1)C(=O)O)c1ccccc1 (configuration not stated)	-1.6	-3	-0.3	29	-0.3%[38.3 µM]	1
COc1ccccc1NC(=O)CSc1nc2sc(C)c(C)c2c(=O)n1C	-1.2	3	3.0	35	3.9%	-10
Fc1cc(Br)ccc1NC(=S)Nc1cccnc1	-5.4	-11	-0.3	17	0.9%	-2
COc1ccc(C(=O)C2CCN(C(=S)Nc3ccc(F)cc3)CC2)cc1	5.5	-22	0.3	11	-0.7%	-13
CCNC(=O)c1cc2c(c(-c3cccc(-c4cccnc4)c3)n1)[C@H](CCO)N(S(C)(=O)=O)C2	/	/	-0.6	/	6.0%	0
COCc1c(C(=O)N/N=C\c2cccnc2)nnn1-c1nonc1N	-4.8	0	-0.5	6	0.3%	-1
O=C(CN1C(=O)NC2(CCc3ccccc32)C1=O)c1cccs1 (configuration not stated)	-4.3	-1	-0.6	7	0.4%	4
CCOc1ccc(N2C(=O)CC(N(O)c3ccccc3)C2=O)cc1 (configuration not stated)	?	51*	-0.4	-4	2.6%	-2
NC(=O)C1(C(=O)O)OC1(c1ccc(Cl)cc1)c1ccccc1Cl (configuration not stated)	-2.8	-5	-0.1	-13	-0.5%	7
CCOC(=O)c1nc(C)n(-c2ccc([N+](=O)[O-])cc2)n1	-1.8	0	0.0	-8	0.0%	2
COc1cccc(CN2C(=O)c3ccccc3Sc3ccc(C(=O)OCc4ccco4)cc32)c1	/	/	4.0	30	-0.1%	/
Cc1ncc([N+](=O)[O-])n1CC(=O)N/N=C/c1ccc(F)cc1	-6.9	-1	-0.1	-6	4.3%	-2
Cc1cccc(C)c1NC(=O)CSC(=S)N1CCCC1	2.7	-6	1.5	67	-0.6%	-1
COc1ccc(/C=N/Nc2nc(C)c([N+](=O)[O-])c(N(C)c3ccccc3)n2)cc1OC	-3.8	-22	1.4	14	19%	-9
Cc1cccc(C(=O)N/N=C/c2ccc(OC3CSC3)cc2)c1	-0.6	-10	0.1	-1	8.7%[38.3 µM]	-4
